Ecoli rRNA inh: inhibitors of bacterial rRNA selective over humanized ribosomes; 350,000 tested, 1.6% active; E. coli WT GFP vs humanized-ribosome RFP mutants, fluorescence, 24 h; stronger effect = lower value; DMSO median 0, no signal -100; GFP signal change (wild-type ribosome), % (no concentration beside the values);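 active = significant combined selectivity score with lowered wild-type GFP, culture density cut under 30%, mutant RFP and density less affected; inactive = any of these conditions unmet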; note: one replicate is shown; some compounds called inactive have numbers as strong as hits
FGF22 binding: FGF22 (human) thermal shift binding; AID 651658; recombinant FGF22 thermal shift, SYPRO orange fluorescence; percent of sucrose octasulfate shift, DMSO zero; Q9HCT0; calls only at 9.99 µM; 340,000 tested, 1.5% active;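 active = melting point raised past a set limit in the mean and every replicate; three in four hits are not shown here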
Target sequence (Q9HCT0 whole entry, looked up): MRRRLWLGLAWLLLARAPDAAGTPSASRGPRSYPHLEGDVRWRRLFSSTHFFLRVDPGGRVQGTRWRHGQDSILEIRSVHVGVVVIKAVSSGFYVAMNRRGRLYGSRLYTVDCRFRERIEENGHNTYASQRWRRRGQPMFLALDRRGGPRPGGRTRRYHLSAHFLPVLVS
AF4-AF9 inh: inhibitors of human MLL-AF4/AF9 interaction; AlphaScreen, biotin-AF4 peptide binding to FLAG-AF9; inhibition, % at 10 µM; 350,000 tested, 0.47% active; P42568; AID 651704;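 active = every replicate reaching a set inhibition limit, whatever the replicate mean, cut at about 25% in these data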;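 note: 0% = plate neutral control median and 100% = total signal loss; the record names both 10 and 1 µM as test concentration; the first replicate is given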
Target sequence (P42568 whole entry, looked up): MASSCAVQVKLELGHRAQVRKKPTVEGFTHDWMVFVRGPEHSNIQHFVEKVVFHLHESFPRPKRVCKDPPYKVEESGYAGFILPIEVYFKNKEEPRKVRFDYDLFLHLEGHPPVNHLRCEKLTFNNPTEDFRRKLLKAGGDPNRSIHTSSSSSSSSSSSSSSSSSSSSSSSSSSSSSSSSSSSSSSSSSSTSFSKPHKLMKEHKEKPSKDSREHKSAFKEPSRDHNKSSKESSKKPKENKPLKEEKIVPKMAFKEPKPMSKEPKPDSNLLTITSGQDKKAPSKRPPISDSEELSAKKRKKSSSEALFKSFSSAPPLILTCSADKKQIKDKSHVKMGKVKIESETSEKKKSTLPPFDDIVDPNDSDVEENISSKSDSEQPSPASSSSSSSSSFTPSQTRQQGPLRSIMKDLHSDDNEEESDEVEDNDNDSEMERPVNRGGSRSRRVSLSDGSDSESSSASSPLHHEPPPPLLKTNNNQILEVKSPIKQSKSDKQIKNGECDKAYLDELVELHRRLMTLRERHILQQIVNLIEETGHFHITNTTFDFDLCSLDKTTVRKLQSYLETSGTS
Ecoli rRNA inh OD600: second read-out of Ecoli rRNA inh, no call of its own (marks repeat the call); OD600 change, %; measured here: OD600 growth;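 optical density of the mix in the first replicate; 0 = DMSO median and -100 = no signal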
Ecoli rRNA inh RFP: recorded beside Ecoli rRNA inh, whose call it bears; RFP signal change, %; measured here: RFP humanized mutant strains;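 first replicate; 0 = DMSO median and -100 = no signal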
Starred values were filed as active, the others as inactive; i = inactive; & = joins results of further samples. Only part of the results is shown, so the mix of outcomes need not match the whole.

Ecoli rRNA inh | Ecoli rRNA inh OD600 | Ecoli rRNA inh RFP | SMILES | FGF22 binding | AF4-AF9 inh
-22.2 | -18.6 | 5.0 | CN(CCc1ccccc1)C(C(=O)c1ccc2c(c1)OCO2)c1nnnn1-c1ccccc1NC(=O)OC(C)(C)C (centres undefined) | i | -0.9
16.6&-3.9 | 5.8&4.9 | 2.1&0.6 | COc1ccc(S(=O)(=O)Nc2ccc3c(c2)C(=O)N([C@H](C)CO)C[C@H](C)[C@@H](CN(C)C(=O)Nc2c(C)noc2C)OCCCC[C@H](C)O3)cc1 | i | 2.1&-0.3
1.8 | 8.1 | 17.4 | COc1ccc(S(=O)(=O)Nc2ccc3c(c2)CC(=O)N([C@H](C)CO)C[C@H](C)[C@H](CN(C)S(=O)(=O)c2ccc(C)cc2)O3)cc1 | i | 3.5
3.9 | 2.9 | -4.5 | CCN1[C@@H]2Cn3c(ccc(-c4cccc(F)c4)c3=O)[C@H]1[C@@H](C(=O)NCCCN(C)C)[C@@H]2CO | i | -5.7
0.1 | -0.7 | 0.8 | CO[C@@H]1CN(C)C(=O)c2cc(NC(C)=O)ccc2OC[C@H](C)N(C(=O)c2ccccc2F)C[C@@H]1C | i | 2.1
4.1 | 9.7 | -3.0 | O=C(c1cccnc1)N1CC2(C1)[C@H](c1ccccc1)[C@@H](CO)N2C(=O)c1cccnc1 | i | -1.8
-0.6 | -2.0 | -0.9 | CNC(=O)C[C@@H]1CC[C@@H]2[C@@H](COc3ccc(NC(=O)c4ccccc4OC)cc3C(=O)N2C)O1 | i | 0.9
17.4 | 25.4 | 0.9 | COc1ccc(/C(N)=N/OC(=O)c2ccc3ccccc3c2)cc1OC | i | -2.9
-8.5 | -55.8 | 28.0 | O=S(=O)(c1ccccc1)N1CC[C@@H]2[C@@H](CO)Nc3ccc(-c4ccccc4F)cc3[C@@H]21 | i | 6.1
0.4 | 0.4 | 5.1 | CCCN(C)C[C@@H]1Oc2cc(C#Cc3ccc(F)cc3)ccc2S(=O)(=O)N([C@@H](C)CO)C[C@@H]1C | i | 3.9
-5.8 | -7.1 | 1.9 | C[C@H](CO)N1C[C@H](C)[C@H](CN(C)S(=O)(=O)c2cccs2)Oc2c(NC(=O)c3ccc(-c4nccs4)cc3)cccc2C1=O | i | -0.2
-7.0 | -21.9 | 14.2 | C[C@@H]1CN([C@H](C)CO)S(=O)(=O)c2ccc(C#Cc3ccccc3)cc2O[C@H]1CN(C)C(=O)Cc1ccccn1 | i | 1.8
3.6 | 11.9 | -1.7 | C(=NN=C1c2ccccc2-c2ccccc21)c1ccc2c(c1)OCO2 | i | 15.3
-0.7 | 13.1 | 6.2 | CN(C)CCCNc1nc2cc(-c3ccccc3)sc2c(=O)n1C | i | 4.1
1.2 | -15.4 | 2.2 | C[C@@H]1CN([C@@H](C)CO)C(=O)Cc2cc(NC(=O)C3CCCCC3)ccc2O[C@H]1CN(C)CC1CCCCC1 | i | 5.3
1.0 | -4.1 | 1.6 | C[C@@H]1CN([C@@H](C)CO)C(=O)Cc2cc(NC(=O)Nc3ccc(C(F)(F)F)cc3)ccc2O[C@@H]1CN(C)CC1CCCCC1 | i | -1.9
-9.3 | -51.9 | 8.8 | COc1ccc(C(O)c2nc(-c3cc(F)cc(F)c3)cs2)cc1 (centres undefined) | i | -0.4
-1.6 | 2.6 | -5.6 | CN(C)c1ccc(CC(=O)N2CCCC(c3cc(C(=O)Nc4ccccc4)no3)C2)cc1 (centres undefined) | i | 8.6
7.6 | 9.3 | 1.0 | CCCNC(=O)Nc1ccc2c(c1)C(=O)N(C)C[C@H](OC)[C@@H](C)CN(C)[C@@H](C)CO2 | i | 0.3
9.4&3.2 | 12.7&4.1 | 2.6&-0.1 | C[C@H](CO)N1C[C@H](C)[C@@H](CN(C)C(=O)CN2CCOCC2)Oc2ncc(-c3cncnc3)cc2C1=O | i | -1.1&-1.7&-3.3
3.5 | 1.5 | 2.4 | O=C(Cc1cccc(NC(=O)C2CCN(C(=O)C3CCC3)CC2)c1)Nc1cccc(C(=O)N2CCOCC2)c1 | i | -3.0
4.3 | 5.0 | 0.9 | C[C@@H]1CN([C@H](C)CO)C(=O)c2cc(NS(C)(=O)=O)ccc2O[C@H]1CN(C)Cc1ccc2c(c1)OCO2 | i | -8.0
-1.2 | -4.8 | -0.9 | C[C@@H]1CCCCO[C@@H](CN(C)S(=O)(=O)c2ccccc2)[C@H](C)CN([C@H](C)CO)C(=O)c2cc(NC(=O)CCCN(C)C)ccc2O1 | i | 4.3
7.9 | 13.1 | -1.5 | C/C=C/c1cnc2c(c1)C(=O)N([C@H](C)CO)C[C@H](C)[C@H](CN(C)Cc1cccc(C(=O)O)c1)O2 | i | -5.0
-8.0 | -12.3 | 0.2 | COc1cccc(S(=O)(=O)N2CCCCN3[C@H](C2)[C@@H](c2ccc(-c4cncnc4)cc2)[C@@H]3CO)c1 | i | -6.3
4.2 | 2.6 | -2.4 | CCCN(C)C[C@@H]1OCCCC[C@@H](C)Oc2ccc(NC(=O)CCC(F)(F)F)cc2C(=O)N([C@H](C)CO)C[C@@H]1C | i | -1.2
0.8 | 5.0 | -2.9 | CC(C)OC(=O)N(C)C[C@@H]1OCc2cnnn2CCCC(=O)N([C@H](C)CO)C[C@H]1C | i | -1.8&-0.1&-1.3
-3.5 | -2.2 | 3.9 | CO[C@@H]1CN(C)C(=O)c2cc(NC(=O)Nc3cccc(F)c3)ccc2OC[C@@H](C)N(C(=O)Nc2cccc(F)c2)C[C@H]1C | i | 1.1
1.0 | -1.3 | 0.2 | C[C@H](CO)N1C[C@H](C)[C@@H](CN(C)S(C)(=O)=O)Oc2ccc(NC(=O)CCC(F)(F)F)cc2CC1=O | i | -11.4
6.9 | 10.6 | -1.8 | COc1ccc(S(=O)(=O)NC(=O)C2(C)CCN2C(=O)Cc2ccccc2)cc1OC (centres undefined) | i | -3.1
61.5 | 4.6 | 54.0 | CC1CCCN(c2cccc3c2S(=O)(=O)N([C@H](C)c2ccccc2)C[C@@H](COCc2ccccc2)O3)C1 (some centres undefined) | i | -1.0
-3.0 | -2.2 | -0.9 | CCCNC(=O)Nc1ccc2c(c1)C(=O)N(C)[C@@H]1CC[C@H](CC(=O)NCc3ccccc3)O[C@@H]1CO2 | i | -6.4
-1.8 | -10.7 | 1.4 | COc1cccc(CN2CC3(CN(S(C)(=O)=O)C3)c3c(n(C)c4cc(OC)ccc34)[C@H]2CO)c1 | i | 6.6
-5.5 | -3.0 | -2.1 | CN(C)C(=O)C[C@@H]1CC[C@H]2[C@@H](COC[C@@H](O)CN2C(=O)C2CC2)O1 | i | -1.5
0.9 | -2.9 | -1.3 | O=C(N[C@@H]1CC[C@H](CCn2cc(-c3ccccc3)nn2)O[C@H]1CO)c1cnccn1 | i | 0.5
5.9 | 8.4 | 1.0 | CCCNC(=O)N(C)C[C@@H]1Oc2ncc(C#C[C@H](C)O)cc2C(=O)N([C@@H](C)CO)C[C@H]1C | i | -2.7
-6.5 | -18.8 | 8.8 | C[C@@H]1CN([C@@H](C)CO)S(=O)(=O)c2ccc(C3=CCCC3)cc2O[C@@H]1CN(C)C(=O)c1ccc(F)cc1 | i | 1.6
-1.5 | 9.9 | -4.9 | COc1ccc2c3c(n(C)c2c1)[C@@H](CO)N(Cc1ccc2c(c1)OCO2)CC31CN(C(C)=O)C1 | i | -2.6
-30.0 | -37.7 | 0.7 | O=C(NC(c1ccc(-c2ccccc2)cc1)c1cnccn1)C1CCN(CCOc2ccc(Cl)cc2Cl)CC1 (centres undefined) | i | 0.9
2.2 | 3.7 | 0.1 | COc1ccc(CN(C)C[C@@H]2Oc3ccc(N(C)C)cc3CC(=O)N([C@H](C)CO)C[C@H]2C)cc1 | i | 0.1
8.8 | 1.8 | 0.5 | O=C1NC(Cc2ccc(O)cc2)c2nc3ccccc3c(=O)n2-c2ncccc21 (centres undefined) | i | 1.2
-11.0 | -29.2 | 2.9 | CN1C(=O)c2cc(NS(C)(=O)=O)ccc2OC[C@@H]2O[C@H](CC(=O)NCc3ccc(-c4ccccc4)cc3)CC[C@H]21 | i | -13.0
-24.1 | -42.5 | 10.2 | COc1ccc(-n2nnnc2C(CCc2ccccc2)N2CCN(C/C=C/c3ccccc3)CC2)cc1 (centres undefined) | i | 2.7
0.4 | 1.3 | 0.7 | CC(C)CC#Cc1cnc2c(c1)C(=O)N([C@@H](C)CO)C[C@@H](C)[C@H](CN(C)C(=O)Nc1ccccc1F)O2 | i | -1.6
-4.0 | -13.3 | 0.8 | C[C@H](CO)N1C[C@H](C)[C@@H](CN(C)C(=O)Nc2ccc3c(c2)OCO3)Oc2ccc(NC(=O)Nc3ccc(C(F)(F)F)cc3)cc2CC1=O | i | 15.5
3.3 | 5.9 | -1.1 | Cc1noc(C)c1S(=O)(=O)Nc1ccc2c(c1)CC(=O)N([C@H](C)CO)C[C@@H](C)[C@H](CN(C)S(=O)(=O)c1ccc(F)cc1)O2 | i | -1.8
-1.8 | -2.3 | 5.4 | CCCN1C[C@H](C)[C@@H](OC)CN(C)C(=O)c2cc(NC(=O)c3ccc(F)cc3)ccc2OC[C@@H]1C | i | 2.0
2.1 | -1.1 | 1.6 | C[C@@H]1CN([C@H](C)CO)C(=O)c2cccc(NS(=O)(=O)c3cn(C)cn3)c2O[C@H]1CN(C)Cc1ccc(C(F)(F)F)cc1 | i | 2.1
-2.1 | -4.8 | 3.1 | CS(=O)(=O)N1C[C@@H](O)COC[C@H]2O[C@@H](CC(=O)NCc3ccc(-c4ccccc4)cc3)CC[C@@H]21 | i | 16.8
2.3 | 2.7 | -5.0 | C[C@H](CO)N1C[C@H](C)[C@H](CN(C)Cc2ccccn2)Oc2ncc(C3=CCCC3)cc2C1=O | i | -1.8

Arranged by the number under Ecoli rRNA inh OD600 (falling): some entries from above.
Ecoli rRNA inh | Ecoli rRNA inh OD600 | Ecoli rRNA inh RFP | SMILES | FGF22 binding | AF4-AF9 inh
0.8 | 5.0 | -2.9 | CC(C)OC(=O)N(C)C[C@@H]1OCc2cnnn2CCCC(=O)N([C@H](C)CO)C[C@H]1C | i | -1.8&-0.1&-1.3
2.3 | 2.7 | -5.0 | C[C@H](CO)N1C[C@H](C)[C@H](CN(C)Cc2ccccn2)Oc2ncc(C3=CCCC3)cc2C1=O | i | -1.8
-8.0 | -12.3 | 0.2 | COc1cccc(S(=O)(=O)N2CCCCN3[C@H](C2)[C@@H](c2ccc(-c4cncnc4)cc2)[C@@H]3CO)c1 | i | -6.3
-30.0 | -37.7 | 0.7 | O=C(NC(c1ccc(-c2ccccc2)cc1)c1cnccn1)C1CCN(CCOc2ccc(Cl)cc2Cl)CC1 (centres undefined) | i | 0.9

Further entries.
Ecoli rRNA inh | Ecoli rRNA inh OD600 | Ecoli rRNA inh RFP | SMILES | FGF22 binding | AF4-AF9 inh
-0.7 | -7.0 | 3.2 | C[C@H]1CN([C@@H](C)CO)C(=O)c2cc(NC(=O)NC3CCCCC3)ccc2O[C@@H]1CN(C)S(=O)(=O)c1ccccc1 | i | 0.1
1.9 | 3.1 | -0.8 | COc1ccc(NC(=O)N(C)C[C@@H]2Oc3ccc(NC(=O)Nc4c(C)noc4C)cc3CC(=O)N([C@H](C)CO)C[C@H]2C)cc1 | i | -7.8
-7.6 | -4.1 | 2.7 | CCNC(=O)C[C@H]1CC[C@@H]2[C@@H](COc3ccc(NC(=O)Nc4cccc(F)c4)cc3C(=O)N2C)O1 | i | 2.5
-0.2 | -11.7 | -1.1 | CC(C)NC(=O)N1CC(=O)N2[C@H](CO)[C@H](c3ccc(/C=C/c4ccccc4)cc3)[C@@H]2C1 | i | -0.7
2.8 | -13.4 | 4.7 | O=C(C[C@@H]1CC[C@@H]2[C@H](COC[C@H](O)CN2Cc2ccc(F)cc2)O1)N1CCc2ccccc2C1 | i | 0.6
-2.5 | 4.0 | 2.5 | COc1cccc(-c2ccc3c(c2)[C@H]2[C@H](CCN2S(=O)(=O)c2cn(C)cn2)[C@@H](CO)N3)c1 | i | -0.2
-6.0 | 9.6 | 3.8 | C[C@@H]1CCCCO[C@H](CN(C)Cc2ccc(C(=O)O)cc2)[C@H](C)CN([C@H](C)CO)C(=O)c2cc(NC(=O)c3ccccc3)ccc2O1 | i | -1.9
6.7 | 8.2 | 1.1 | CCCNC(=O)N1C[C@H](C)[C@H](OC)CN(C)C(=O)c2cc(NC(C)=O)ccc2OC[C@@H]1C | i | -1.5
-12.3 | -24.2 | 0.9 | Cc1cc(Br)cn2c(Cc3ccccc3)c(-c3ccccc3)nc12 | i | -0.5
-6.5&-0.7 | -14.3&-45.3 | 4.7&30.9 | C[C@@H]1CN([C@H](C)CO)S(=O)(=O)c2ccc(C#CC3CCCCC3)cc2O[C@H]1CN(C)C(=O)Cc1ccncc1 | i | 10.0&7.7&6.9
0.3 | 1.1 | -1.7 | Cc1noc(C)c1NC(=O)N(C)C[C@H]1OCCCC[C@@H](C)Oc2ccc(N(C)C)cc2C(=O)N([C@@H](C)CO)C[C@@H]1C | i | -5.8
2.3 | -0.5 | -4.4 | C/C=C/c1ccc([C@@H]2[C@H](CO)N(Cc3cncnc3)C23CN(C(=O)CC)C3)cc1 | i | -0.2

Screens: PubChem BioAssay, Broad Institute
